TRPML1 inh – qHTS for Inhibitors of the Human Mucolipin Transient Receptor Potential 1 (TRPML1). Mucolipin-1 (Homo sapiens), Q9GZU1. TRPML1-inducible cells, Ca2+ dye fluorescence, FDSS; active compounds read low; inhibition of EC80 agonist-evoked calcium signal. activity change, negative = inhibition, % (concentration not given with the values). 0.02% of 390,000 active. AID 624415, 2012; in the data active means activity change below about -50%; inconclusive means about -30% to -50%; inactive means above about -30%;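 also: stimulus is agonist 54-4 at its EC80 concentration; % is scaled to controls: 0 for no effect and ±100 for the full control effect; the text of the record puts the active cut at -80%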
Target sequence (Q9GZU1 whole entry, looked up): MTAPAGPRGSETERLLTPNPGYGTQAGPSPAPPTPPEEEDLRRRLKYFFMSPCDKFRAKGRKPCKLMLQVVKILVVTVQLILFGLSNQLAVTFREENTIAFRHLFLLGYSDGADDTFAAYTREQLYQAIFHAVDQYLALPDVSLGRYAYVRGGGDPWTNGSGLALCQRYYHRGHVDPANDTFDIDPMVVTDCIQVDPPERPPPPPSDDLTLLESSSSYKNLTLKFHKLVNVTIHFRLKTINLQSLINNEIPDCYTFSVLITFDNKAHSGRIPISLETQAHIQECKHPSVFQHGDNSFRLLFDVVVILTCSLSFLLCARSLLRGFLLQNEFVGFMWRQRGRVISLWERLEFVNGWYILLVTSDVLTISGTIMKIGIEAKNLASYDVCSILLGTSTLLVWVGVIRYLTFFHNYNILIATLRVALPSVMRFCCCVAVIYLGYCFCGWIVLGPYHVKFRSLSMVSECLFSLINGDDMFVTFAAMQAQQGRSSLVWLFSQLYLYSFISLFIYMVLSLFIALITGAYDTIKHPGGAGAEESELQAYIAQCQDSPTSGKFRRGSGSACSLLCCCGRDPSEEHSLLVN
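Calcium fluorescence in TRPML1-DL cells induced overnight with Tet: a 110 s read after compound pin addition, then a 110 s antagonist read after challenge with 54-4 at 4 uM final (EC80).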
D2 agonist – Beta-Arrestin HTS for Positive Allosteric Modulators of the Human D2 Dopamine Receptor: Agonists | DiscoveRx PathHunter D2 beta-arrestin, luminescence, 90 min; 100% = 57 uM dopamine signal | activation, % (no concentration beside the values) | 0.084% of 360,000 active; in the data active = activation above about 40%; inconclusive = about 15% to 40%; inactive = below about 15%; also: compound concentration not given in the record; the text of the record calls up to 30% inactive
Target sequence (P14416 whole entry, looked up): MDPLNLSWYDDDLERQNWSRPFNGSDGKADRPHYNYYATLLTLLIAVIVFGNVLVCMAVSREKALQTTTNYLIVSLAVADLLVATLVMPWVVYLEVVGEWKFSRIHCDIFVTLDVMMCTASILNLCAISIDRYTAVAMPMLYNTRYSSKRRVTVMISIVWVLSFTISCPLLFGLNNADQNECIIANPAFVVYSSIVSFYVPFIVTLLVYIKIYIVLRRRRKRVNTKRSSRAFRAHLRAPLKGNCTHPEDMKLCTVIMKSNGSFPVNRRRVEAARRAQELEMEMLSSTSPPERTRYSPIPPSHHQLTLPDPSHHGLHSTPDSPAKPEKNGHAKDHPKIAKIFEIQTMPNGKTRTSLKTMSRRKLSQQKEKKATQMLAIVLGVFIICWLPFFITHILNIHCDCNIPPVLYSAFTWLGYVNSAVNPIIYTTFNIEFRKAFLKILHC
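DiscoveRx PathHunter D2 beta-arrestin cells (2,100/well) attached overnight, then compound-stimulated 90 min at 37 C in HBSS/10 mM HEPES/0.1% Tween-20 buffer; beta-galactosidase complementation read by luminescence after 1 h at ambient temperature. Dopamine 57 uM final (EC100) as control.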
TRPML1 ag – qHTS for Agonists of the Human Mucolipin Transient Receptor Potential 1 (TRPML1); Mucolipin-1 (Homo sapiens), Q9GZU1; TRPML1-expressing cells, Ca2+ dye fluorescence, FDSS; host cell line not named in the record; reference of the full effect not given here; activation, % (no concentration beside the values); 0.12% of 410,000 active; AID 624414, 2012; in the data active = activation above about 50%; inconclusive = about 30% to 50%; inactive = below about 30%; also: 0% is about no effect; the text of the record puts the active cut at 80%
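Tetracycline-induced TRPML1-DL cells are seeded and incubated overnight before loading with a no-wash Ca2+ dye and quencher. Agonist activity is taken from the 110 s fluorescence read following compound pin-transfer on an FDSS, before EC80 54-4 challenge.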
PINK1 expr mod – A Quantitative High throughput Screen to Identify Chemical Modulators of PINK1 Expression; 0.2% of 410,000 active; Potency, µM (doses to about 76.6 µM), for inactives: top-dose activation (PINK1 increase), usual class: activators; AID 624263, 2012; PINK1 immunofluorescence, high-content cytometry, 24 h; active = well fitted activation curve with a large enough effect; inconclusive = small, poorly fitted or top-dose-only effect; inactive = flat fitted curve, though single readings scatter; cell line not stated here;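 also: potency is read from the fitted curve at half-maximal effect; % of control where 0% means no effect; nearly all actives have a fitted effect of over 65% in size; a mitochondrial uncoupler was the plate control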
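Stable cell line, 250 cells/well, 12 h attachment; compounds pinned at 5 concentrations, 24 h; CCCP control. Fixed with nuclear dye, primary antibodies 12 h at 10 degrees C, secondary plus cell stain; laser-scanning cytometer read.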
D2 PAM – Beta-Arrestin HTS for Positive Allosteric Modulators of the Human D2 Dopamine Receptor: Potentiators; 0.23% of 360,000 active; D(2) dopamine receptor (Homo sapiens), P14416; AID 624464, 2012; DiscoveRx D2 beta-arrestin cells, luminescence, 90 min; 100% = 57 uM dopamine signal; potentiation, % (test concentration not listed); active = potentiation of 50% or more; inconclusive = 30% to 50%; inactive = 30% or less;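 also: compound concentration not given in the record; tested on top of an EC20 dose of dopamine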
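D2 cells co-treated with compound plus 50 nM dopamine (EC20) for 90 min at 37 deg C to detect potentiation. Beta-arrestin recruitment was read as enzyme-fragment luminescence after 1 h at ambient temperature. Full response was set by 57 uM dopamine.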
Six1-Eya2 blk – qHTS Assay for Inhibitors of the Six1/Eya2 Interaction; Homeobox protein SIX1 (Homo sapiens) + Protein phosphatase EYA2 (Homo sapiens), …; AlphaScreen GST-Six1/His-Eya2 binding, biochemical; active compounds read low; control for the full effect not named in the record; activity change, % (no concentration beside the values); 0.56% of 360,000 active; in the data active = activity change below about -65%; inconclusive = about -30% to -65%; inactive = above about -30%; also: % is scaled to controls: 0 for no effect and ±100 for the full control effect
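GST-Six1 + His-Eya2 (5X stock: 250/500 nM); Tris pH 8.0, 300 mM NaCl, 0.05% BSA, 0.02% Tween 20; GSH donor/Ni acceptor beads; 1 h 37 °C dark; AlphaScreen readout.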
The depositor's hits bear a star; ? = inconclusive; / = not tested or not shown; & = joins results of further samples; [ ] = another dose, or the depositor's remark.

Molecule,TRPML1 inh,D2 agonist,TRPML1 ag,PINK1 expr mod,D2 PAM,Six1-Eya2 blk
Cc1cc(=O)oc(C)c1C(=O)NCC(C)NC(=O)c1c(C)cc(=O)oc1C (stereo not given),3,-3.0,0.8,-1.1%,8,22
CCN(CC(=O)Nc1ccc2c(c1)OCCO2)C(=O)c1cc(=O)[nH]c2ccccc12,5,-5.0,-0.5,1.6%,-2,5
O=C(CN1CCN(c2ccccn2)CC1)N(c1ccccc1)c1ccc2ccccc2c1,-21,0.1,-1.6,-1.3%,-16,-9
CC1(C)CC(C(N)=S)CCO1 (stereo not given),8,-3.4,1.2,-0.7%,-6,3
CC(=O)c1ccc(NC(=O)CSc2cn(CC(=O)N3CCCCC3)c3ccccc23)cc1,9,/,-0.1,2.9%,/,/
O=C(c1cccnc1)N1CCN(c2ccc([N+](=O)[O-])cc2Cl)CC1,-2,-1.5,-0.1,0.6%,-3,6
CC1Cc2ccccc2N1S(=O)(=O)c1cccc(C(=O)N2CCN(c3ncccn3)CC2)c1 (stereo not given),4,-2.6,3.9,1.0%,-11,-11
CCOc1ccc(Cl)cc1-c1cc(C(=O)Nc2ccc(Br)cc2)[nH]n1,/,6.1,0.0,5.8%,-18,-4
COc1ccccc1Nc1nc(C)cc(=O)[nH]1,6,-0.9,-0.3,/,-32,0
C/C(=N\Nc1ccc(C(F)(F)F)cc1[N+](=O)[O-])C1CC1,-2,-1.5,-0.3,10%,-17,?
CCOC(=O)c1cc2c(=O)n3ccccc3nc2n(C(C)C)c1=NC(=O)c1c(-c2c(F)cccc2Cl)noc1C,1&22,-3.9,-0.2&1.1,3.8%&5.4%,-7,9
O=C(Nc1ccc(F)cc1)c1cccnc1N1CCCCC1,-12,0.1,-0.4,-0.8%[38.3 µM],-2,-2
COc1ccc(C(=O)c2c(-c3ccsc3)oc3ccc(-c4ccc(OC)cc4)cc23)cc1,-13,-6.3,1.4,-0.2%,-8,3
Cc1ccc(CSCCNS(C)(=O)=O)cc1,25,-1.9,1.7,-0.6%,0,10
Cc1cc(NC(=O)CSc2n[nH]c(-c3ccc(Cl)cc3Cl)n2)no1,-5,-2.8,-2.0,2.1%,-13,-4
CN(CC(=O)Nc1ccc(Cl)c(Cl)c1)Cc1nnc(-c2ccc(F)cc2)o1,-8,1.4,0.7,5.1%,-1,-2
COc1cccc(CN2CCNC(=O)C2CC(=O)NCCCN2CCCC2=O)c1 (stereo not given),-5,-4.2,-0.4,-1.1%,-9,1
NS(=O)(=O)c1ccc(NC(=O)COC(=O)C2(c3ccccc3F)CCCC2)cc1,-4,3.4,3.7,0.5%,-9,-2
COc1ccc(C(=O)NC(=S)NNC(=O)c2ccccc2O)cc1,-4,-4.0,8.7,0.0%,-11,-92*
O=C(NCc1ccccc1)C(=O)Nc1nc(C23CC4CC(CC(C4)C2)C3)cs1,-16,-4.2,0.7,?,-23,12
O=[N+]([O-])c1ccc(/C=N/Nc2ccc3ccccc3c2)o1,18,-19,7.1,6.1%,-14,?
COCCSc1ccccc1C(=O)Nc1ccccc1C(C)C,-7,-3.9,3.2,-1.4%,-41,1
Cc1ccc2c(CN(C)Cc3cccc(F)c3)cc(=O)oc2c1C,/,-6.3,/,-0.2%,-11,3
Cc1cc(C)nc(Nc2nc3ccccc3s2)n1,2,0.6,0.6,-0.6%,1,13
O=C(NNC(=O)c1ccc(Cl)cc1Cl)c1ccc2ccccc2c1,37,-2.2,0.9,8.9%,-6,4
CN(Cc1cnn(-c2ccc(F)cc2)c1)C(=O)[C@H]1O[C@@H](n2ccc(=O)[nH]c2=O)[C@H](O)[C@@H]1O,-17,-4.2,-0.3,1.2%,-3,-5
CCN(CCCNC(=O)C1CCC(=O)N1Cc1ccc(C)cc1)c1cccc(C)c1 (stereo not given),-4,-2.7,-0.6,0.3%,-11,-10
CCN1CCN(c2ccc(NC(=O)c3ccc([N+](=O)[O-])o3)cc2Cl)CC1,7,1.9,0.7,0.7%,2,-6
CC1S/C(=N/N=C2CCCCC2)NC1=O (stereo not given),-11,-0.9,-0.5,-0.1%,-10,-7
CCCn1nnc(NC(=O)c2cc(Br)cc(Br)c2OC)n1,3,-1.6,0.2,2.9%[38.3 µM],11,30
Cc1cccc(NC(=O)CSc2ncc3c(n2)-c2ccccc2N(Cc2ccc(F)cc2)S3(=O)=O)c1C,39,/,1.8,6.8%,/,/
Cc1csc2nc(COc3ccc(NC(=O)C(C)C)cc3)cc(=O)n12,-12,/,-0.6,0.2%,/,/
Nc1nc(SCC(=O)Nc2ncc(Cl)cc2Cl)n[nH]1,10,-3.9,-0.1,-1.3%,-15,-11
COc1cccc(NC(=O)c2cnc[nH]2)c1,/,0.0,/,-0.3%,8,-5
Cc1cc(NC(=O)CSc2ccc3nnc(-c4ccc(F)cc4)n3n2)no1,-4,-2.4,0.1,3.4%[38.3 µM],-6,3
Cc1ccc(CSCC(=O)NCc2ccc3c(c2)OCO3)cc1,25,-3.9,1.0,0.5%,-8,8
COC(=O)c1ccc2nc(C3CCCCC3)c(Cc3ccccc3)n2c1,-12,-6.5,0.9,10%,-9,-8
CCOC(=O)C1(Cc2ccccc2C)CCCN(C(=O)CCc2cccnc2)C1 (stereo not given),17,-2.9,0.9,-0.4%,-10,9
CCOC(=O)CSc1n[nH]c(NC(=O)c2ccc(F)cc2)n1,2,-1.2,0.1,6.6%[38.3 µM],-9,8
Cc1ccc(NS(=O)(=O)c2ccc(C(=O)N3CCCC(C(F)(F)F)C3)cc2)cc1 (stereo not given),-27,-0.9,26,-3.5%,-15,0
CCC(=O)Nc1nnc(-c2cccs2)s1,-2,-0.5,-0.8,-0.8%,0,-2
COc1cccc(CC(=O)OCC(=O)N(C)CC(=O)Nc2ccccc2Cl)c1,-7,-5.0,-0.5,6.5%,-11,1
CC(Oc1ccc2c(-c3ccccc3)cc(=O)oc2c1)C(=O)NCCCN1CCOCC1 (stereo not given),12,-2.4,-0.2,-0.4%,-11,0
COc1ccccc1NC(=O)c1ccc(NC(=O)CN(C)Cc2ccccc2F)cc1,10,1.0,3.1,-1.1%,6,-3
Cc1cccc(N2CCN(C(=O)CCn3c(=O)[nH]c4ccccc4c3=O)CC2)c1C,5,-0.1,4.5,-2.3%,4,-3
CCCCN(C(=O)c1ccc(Cl)c(S(=O)(=O)N2CCOCC2)c1)c1c(N)n(CCC)c(=O)[nH]c1=O,4,-1.2,0.8,-1.1%,-2,7
Cc1cc(C(=O)NCCc2ccc(Cl)cc2)n(-c2ccccc2)n1,11,-3.2,0.0,5.5%,-9,1
COc1ccc(C(CNC(=O)c2cccnc2SC)N2CCOCC2)cc1 (stereo not given),12,-3.8,-0.5,-0.7%,-26,48
O=C(Nc1ccc(O)cc1)c1ccc2c(c1)C(=O)N(Cc1ccccc1)C2=O,8,1.5,1.8,2.2%,-7,-19
Cc1ccc(S(=O)(=O)NCCc2cn3ccsc3n2)c(C)c1,-1,/,-0.3,0.0%,/,/

Single values from the results shown:
Entry for CCOC(=O)CSc1n[nH]c(NC(=O)c2ccc(F)cc2)n1 under Six1-Eya2 blk: 8
Entry for COc1cccc(NC(=O)c2cnc[nH]2)c1 under PINK1 expr mod: -0.3%
Entry for CCCCN(C(=O)c1ccc(Cl)c(S(=O)(=O)N2CCOCC2)c1)c1c(N)n(CCC)c(=O)[nH]c1=O under PINK1 expr mod: -1.1%

The list goes on.
Molecule,TRPML1 inh,D2 agonist,TRPML1 ag,PINK1 expr mod,D2 PAM,Six1-Eya2 blk
CCCn1c(=O)c2[nH]c(-c3ccc(OCC(=O)Nc4ccc(C#N)cc4)cc3)nc2n(CCC)c1=O,-8,-1.5,0.6,3.6%,2,4
CC(=O)N(C(C)=O)c1ccc2c(c1)OCCO2,/,0.4,/,-0.1%,/,-1
C/C(=N\NC(=O)c1cc(-c2ccccc2C)nc2ccccc12)c1cccnc1,10,-3.2,0.1,-2.2%,6,-2
CC(=O)c1c(C)oc2ccc(N(C(C)=O)S(=O)(=O)c3cccc([N+](=O)[O-])c3)cc12,-11,9.7,0.3,1.3%,-2,-6
CCC(=O)Nc1ccc(NC(=S)Nc2ccccc2)cc1,-1,0.0,0.4,1.6%,6,2
C/C(=N\NC(=O)c1ccccc1O)c1ccc(NC(=O)Cc2ccccc2)cc1,4,2.4,-0.4,3.9%,-8,-8
CCn1cc(C(=O)N2CC(C)CC(C)C2)c(=O)c2cc(S(=O)(=O)N3CCOCC3)ccc21 (stereo not given),-1,2.1,-0.9,0.1%,15,3
O=C(/C=C/c1ccco1)NC(=S)Nc1nc(-c2ccc3ccccc3c2)cs1,29,-2.2,-0.7,3.6%,-5,-6
CN(Cc1ccc(-n2cccn2)cc1)C(=O)c1cnn2c1NC(c1ccco1)CC2C(F)(F)F (stereo not given),-4,-3.3,-0.7,2.9%,10,-16
CCN1C(=O)N[C@@H](CCc2ccccc2)[C@@H](C(=O)OC)[C@H]1C,-1,-2.8,-0.6,-0.2%,-2,4
O=C(CNC(=O)N1CC(=O)Nc2ccccc21)Nc1nccs1,14,-3.0,-0.2,0.1%,-1,1
CC(=O)c1ccc(Nc2cc(C)nc3c(C)cccc23)cc1,-5,-2.3,0.3,6.0%,-9,1
COc1cccc(OC)c1C(=O)NCCN1CCN(C(=O)c2c(OC)cccc2OC)CC1,6,-4.2,-0.5,0.4%,5,2
Cc1cc(NC(=O)CSc2nnc(-c3ccco3)n2CC2CCCO2)no1 (stereo not given),10,-3.3,0.1,-2.2%[38.3 µM],-10,3
COc1ccc(C(=O)Nn2c(SCC(=O)NCc3ccccc3)nc3ccccc3c2=O)cc1,15,-0.3,0.2,1.8%,-1,-12
CCS(=O)(=O)N1Cc2ccccc2CC1C(=O)OCC(=O)Nc1ccc(C)cc1 (stereo not given),22,-0.6,-0.4,0.7%,-4,3
COc1cc(/C=C2/NC(=O)N(Cc3ccccc3F)C2=O)ccc1Oc1ccc([N+](=O)[O-])cn1,2,0.8,2.3,12%,4,-1

Printed as active in Six1-Eya2 blk, of those listed so far:
SMILES | TRPML1 inh | D2 agonist | PINK1 expr mod | D2 PAM | Six1-Eya2 blk
COc1ccc(C(=O)NC(=S)NNC(=O)c2ccccc2O)cc1 | -4 | -4.0 | 0.0% | -11 | -92*

Screening results (PubChem BioAssay)
